Screening data from PubChem.
VDR inh: Inhibitors of the vitamin D receptor (VDR): qHTS | Potency, µM, for the others: max response, negative = inhibition, most hits filed as inhibitors | VDR-SRC2-3 peptide fluorescence polarization, 2 h | 400,000 tested, 0.93% active | Vitamin D3 receptor (Homo sapiens), P11473 | AID 504847, 2011; active = well fitted inhibition curve with a large enough effect; inconclusive = small, poorly fitted or top-dose-only effect, or another doubt; inactive = no such curve, though single readings can be large or run the other way; also: series mostly up to about 120 µM
Target sequence (P11473 whole entry, looked up): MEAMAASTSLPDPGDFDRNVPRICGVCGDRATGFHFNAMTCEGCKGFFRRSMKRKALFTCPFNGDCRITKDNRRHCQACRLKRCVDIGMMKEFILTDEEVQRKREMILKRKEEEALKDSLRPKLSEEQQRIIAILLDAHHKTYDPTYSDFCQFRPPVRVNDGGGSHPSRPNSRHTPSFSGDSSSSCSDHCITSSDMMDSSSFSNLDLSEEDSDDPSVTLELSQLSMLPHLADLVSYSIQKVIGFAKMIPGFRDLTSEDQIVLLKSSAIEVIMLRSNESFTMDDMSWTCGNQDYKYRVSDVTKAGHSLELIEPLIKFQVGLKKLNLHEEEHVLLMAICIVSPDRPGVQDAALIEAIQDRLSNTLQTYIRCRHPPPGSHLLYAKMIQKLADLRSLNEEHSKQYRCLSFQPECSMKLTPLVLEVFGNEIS
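Measured by FP: displacement of SRC2-3 coactivator peptide from VDR by library compounds, following a two-hour ambient incubation.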
* hit, by the source's call; ? = inconclusive; & = joins results of further samples; [ ] = remark or other dose. % is scaled to controls: 0 for no effect and ±100 for the full control effect; potency is read from the fitted curve at half-maximal effect. Some of the compounds tested (hit frequency here may not be typical).

Preview (seven entries):
SMILES	VDR inh
O=C(c1ccco1)N1CCN(c2nc3ccccc3n3nnnc23)CC1	-5%
Nc1nc2n(n1)C(c1cccs1)CC(c1ccc(F)cc1)N2 (configuration not stated)	-3%
Cc1ccc(S(=O)(=O)N2CCN(C(=O)C3CCN(C(=O)c4ccc(F)cc4)CC3)CC2)c(C)c1	38%[activator]
CCn1c(O)c(N=NC(=O)c2cccs2)c2ccccc21	-13%
C/C(=N/NC(=O)CNC(=O)Cc1ccccc1)c1ccco1	-2%
Cc1cc(C)cc(NC(=O)CSc2oc(-c3cccs3)nc2S(=O)(=O)c2ccc(Br)cc2)c1	0%
O=C(CNC(=O)c1ccc2c(c1)OCO2)Nc1cccc(Br)c1	-6%

The list itself, repeating the preview:
SMILES	VDR inh
O=C(c1ccco1)N1CCN(c2nc3ccccc3n3nnnc23)CC1	-5%
Nc1nc2n(n1)C(c1cccs1)CC(c1ccc(F)cc1)N2 (configuration not stated)	-3%
Cc1ccc(S(=O)(=O)N2CCN(C(=O)C3CCN(C(=O)c4ccc(F)cc4)CC3)CC2)c(C)c1	38%[activator]
CCn1c(O)c(N=NC(=O)c2cccs2)c2ccccc21	-13%
C/C(=N/NC(=O)CNC(=O)Cc1ccccc1)c1ccco1	-2%
Cc1cc(C)cc(NC(=O)CSc2oc(-c3cccs3)nc2S(=O)(=O)c2ccc(Br)cc2)c1	0%
O=C(CNC(=O)c1ccc2c(c1)OCO2)Nc1cccc(Br)c1	-6%
C=C/C1=C/Cc2ccccc2[C@H](C[N+](=O)[O-])C(C(=O)OC)(C(=O)OC)C1	11%
Cc1ccc(-n2nc(C(=O)Nc3ccc(Cl)cn3)c3c4ccccc4n(C)c3c2=O)cc1	15%
Cc1cc(NC(=O)Nc2cccc(Cl)c2)n(-c2ccccc2)n1	-3%
Cc1cc[n+]2c3c(cccc13)CCC2	50µM*
CN(C(=O)C(C)(C)C)C1c2c(ccc3ccccc23)OCC1CO (configuration not stated)	-2%
CS(=O)(=O)N(CC(=O)Nc1ccccc1C(=O)N1CCOCC1)c1ccc2c(c1)OCO2	-8%
CC(C)(C)[C@@H]1COC(=O)[C@H](Cc2ccc(F)cc2)C/C=C\C[C@@H](CC(=O)NCCO)C(=O)N1	-5%
O=C(c1cc(S(=O)(=O)N2CCOCC2)c(Cl)cc1Cl)N1CCCCC1CO (configuration not stated)	1%
COc1ccc(OCCCC(=O)Nc2nncs2)cc1	4%
Cc1ccc(OCCCCn2cnc3ccccc32)cc1	7%&5%
CC1CCN(c2oc(-c3ccc(OCc4ccccc4Cl)cc3)nc2C#N)CC1	-8%
CC(C)CCNC(=O)C(c1ccncc1)N(Cc1cccs1)C(=O)Cn1nnc(-c2ccc(F)cc2)n1 (configuration not stated)	-5%
O=C(O)COc1ccc(/C=C2\SC(=Nc3ccccc3)N(c3ccccc3)C2=O)cc1	-2%

Some of these compounds in order of the VDR inh value, largest number first:
Molecule | VDR inh
C=C/C1=C/Cc2ccccc2[C@H](C[N+](=O)[O-])C(C(=O)OC)(C(=O)OC)C1 | 11%
C/C(=N/NC(=O)CNC(=O)Cc1ccccc1)c1ccco1 | -2%
CS(=O)(=O)N(CC(=O)Nc1ccccc1C(=O)N1CCOCC1)c1ccc2c(c1)OCO2 | -8%

More structures:
SMILES	VDR inh
CC(=O)Nc1ccc(S(=O)(=O)N2CCN(c3ccccc3)CC2)cc1	14%
COc1ccc(NS(=O)(=O)N2CCCCC2)cc1	9%
N/C(Cc1ccc(Cl)cc1)=N\OC(=O)C1CCCCC1	6%
CC12C(=O)OC(=O)C1(C)C1CCC2O1 (configuration not stated)	1%
O=C(COc1ccccc1)NNC(=O)c1ccc(Cl)cc1	5%
COc1ccc(N2CCN(CC(=O)NCc3ccc(Cl)cc3)CC2)cc1	-11%
CC1CCCC(NC(=O)COC(=O)c2ccccc2[N+](=O)[O-])C1C (configuration not stated)	5%
Nc1nc(SCc2ccccc2)c2ncn(C3CCCCC3)c2n1	3%
Cc1cc2cc(CNC(=O)NC3CCCCC3)ccc2n1C	-4%
O=[N+]([O-])c1ccc(OCC(O)CN2CCN(c3ccccc3F)CC2)cc1 (configuration not stated)	-2%
CCCOc1ccc(/C=N/O)cc1	1%
COc1cc2c(cc1OC)C(c1ccccc1)N(S(C)(=O)=O)CC2 (configuration not stated)	5%
Cc1nc(NC(=O)c2ccccc2)sc1C1(C)CC(c2ccccc2F)=NO1 (configuration not stated)	-14%
O=C(Nc1cc(S(=O)(=O)N2CCCCC2)ccc1N1CCCCC1)c1ccncc1	-2%
COc1cccc(C(=O)NCCSCc2ccccc2Cl)c1	1%
CCOC(=O)N1CCN(C(=O)CN(C2CCCCC2)S(=O)(=O)c2ccc(C)cc2)CC1	5%
O=C(C1CCN(S(=O)(=O)c2cnc[nH]2)CC1)N1CCc2ccccc2C1	10%
CCCn1c(SCC(=O)N2CCc3ccccc3C2)nc(O)cc1=O	-13%
Cn1cc(SCC(=O)NC2CCCC2)c2ccccc21	3%
COc1cc(NCCC(=O)c2cccs2)c(OC)cc1Cl	18%
CCOc1ccc(-c2noc(-c3cccnc3)n2)cc1OC	-12%
COc1ccc(Cl)cc1NC(=O)CCN1C(=O)C2CC=CCC2C1=O (configuration not stated)	-18%
COc1cccc(CNC(=O)c2nn(-c3ccc(C)cc3)c(=O)c3c2c2ccccc2n3C)c1	-9%
Cc1cc(NC(=O)CCN2CCN(C)CC2)ccc1Br	8%
NC(=O)/C(=C/c1ccco1)NC(=O)/C=C/c1ccccc1	6%
COc1ccc(NC(=O)O/N=C/c2ccncc2)cc1	-4%
Cc1cc(N(C)C(=O)c2ccc3c(c2)S(=O)(=O)c2cc(Cl)ccc2C3=O)c(C(F)(F)F)o1	-13%
O=[N+]([O-])c1cc2c(c(CSc3nnc(Nc4ccccc4)s3)c1)OCOC2	5%
O=C(CN1CCN(Cc2ccccc2)CC1)NC(=O)NC1CCCCC1	-2%
COCc1[nH][nH]c(=O)c1C=NCC(=O)OC	-2%
Nc1ccc(Oc2cccc(Oc3ccc(N)cc3)c2)cc1	0%
CCCNS(=O)(=O)c1cccc2cccnc12	-4%
CCOC(=O)C1CCN(C(=O)CN(c2cc(Cl)ccc2OC)S(=O)(=O)c2ccccc2)CC1	8%
CCOC(=O)c1sc(=S)n(C)c1C	10%
CCOc1ccc(C(=O)c2cn(CC(=O)Nc3ccc4c(c3)OCO4)c3ccc(OCC)cc3c2=O)cc1	-16%
O=S(=O)(Nc1ccccc1Cl)c1cccc2nsnc12	-3%
O=C(COC(=O)CCC1CCCC1)Nc1ccc(Cl)cc1F	-13%
CCC(C)N1CC(O)=C(c2nc3ccccc3[nH]2)C1=N (configuration not stated)	4%
COc1ccc(/C=N/NC(=O)c2cc(-c3cccnc3)nc3ccccc23)c(OC)c1	11%
Cc1ccccc1NC(=O)Cc1nc(COC(=O)c2ccc(Cl)c(S(N)(=O)=O)c2)cs1	2%
CCn1c(N)c(C(=O)NCc2ccco2)sc1=S	-28%
Cc1cccc(CNC(=O)c2ccc(NC(=O)C3=CSCCO3)cc2)c1	?
Cc1cccc(N2CCCn3c2nc2c3c(=O)n(CCN3CCOCC3)c(=O)n2C)c1	1%
COc1ccccc1C(=O)NCCCCNC(=O)c1ccccc1OC	3%
CCC(=O)c1ccc(OCCN2CCOCC2)cc1	4%
CC1CN(c2nc(N(C)c3ccccc3)nc(N)c2[N+](=O)[O-])CC(C)O1 (configuration not stated)	-4%
CC(=O)Nc1c(Cl)cc([N+](=O)[O-])c2ccccc12	-14%
CN(C)c1ccnc(Nc2ccc(O)cc2)c1C#N	14%
COc1cc(CNCCSc2nnnn2C)ccc1OCc1ccc(Cl)cc1Cl	2%
Cc1cc(C(=O)Nc2cccc(-c3ccc(N4CCOCC4)nn3)c2)ccc1[N+](=O)[O-]	-23%
Cc1cc(C(=O)NNC(=S)NCC(C)C)no1	1%
Cc1ccc(CNC(=O)c2ccc3c(=O)n(-c4ccccc4)c(=O)[nH]c3c2)cc1	-12%
O=C(CCCOc1ccccc1)NC1CCCc2ccccc21 (configuration not stated)	-19%
COc1ccccc1-c1nnc(SCC(=O)O)n1-c1ccccc1	9%
CSCC(=O)NC1CCCN(C2Cc3ccccc3C2)C1 (configuration not stated)	-3%
CCOC(=O)CSc1nc2c(c(-c3ccc(C)o3)c1C#N)CCCC2	-6%
Cc1ccc(C(=O)N[C@H](C(=O)OCc2cc(=O)oc3cc(C)ccc23)C(C)C)cc1	-16%
Cc1ccc(C)c(N2CCN(C(=O)CCC(=O)Nc3nnc(C(F)(F)F)s3)CC2)c1	-14%
CCOCC(=O)Nc1cc(C)on1	0%
Cc1cc(C)c(S(=O)(=O)c2ccccc2)c(OC(=O)c2c(F)cccc2Cl)n1	-11%

Another view of 4 compounds above:
| VDR inh | Molecule |
| --- | --- |
| -3% | CSCC(=O)NC1CCCN(C2Cc3ccccc3C2)C1 (configuration not stated) |
| -6% | CCOC(=O)CSc1nc2c(c(-c3ccc(C)o3)c1C#N)CCCC2 |
| -16% | Cc1ccc(C(=O)N[C@H](C(=O)OCc2cc(=O)oc3cc(C)ccc23)C(C)C)cc1 |
| -14% | Cc1ccc(C)c(N2CCN(C(=O)CCC(=O)Nc3nnc(C(F)(F)F)s3)CC2)c1 |

The list goes on:
SMILES	VDR inh
O=C(NCCc1ccccc1)c1ccc2c(c1)N(Cc1ccc(F)cc1)C(=O)c1ccccc1S2	-10%
COc1ccc(NC(=O)CCc2nnc3ccc(N4CCC5(CC4)OCCO5)nn23)cc1	-19%
Cc1cccc(N2C(=O)CC(SC(=Nc3ccccc3)Nc3ccccc3)C2=O)c1 (configuration not stated)	8%
Cc1ccc(C(=O)NCCCn2ccnc2)o1	-5%
CC(=O)NCc1ccc(C(=O)O)cc1	14%
CS(=O)(=O)Nc1cccc(-c2cn3ccccc3n2)c1	11%
O=C1CSC(=S)N1c1ccc(F)c(Cl)c1	16%
CCN(CCO)c1ccc(NC(=S)Nc2cccc(S(=O)(=O)N(C)C)c2)cc1	?
O=C(/C=C/c1ccco1)N1CCC(Cc2ccccc2)CC1	?
Cc1c(C(C)NC(=O)c2ccc3nc(Cc4ccccc4F)oc3c2)cnn1C (configuration not stated)	-4%
CCN1CCN(c2cc3c(cc2F)c(=O)c(S(=O)(=O)c2cc(C)cc(C)c2)cn3CC)CC1	16%
Cc1ccc(/C=N/NC(=O)c2c(C)nc3ccc(Br)cn23)cc1	-20%
Cc1cc(C)c(S(=O)(=O)NCC(c2ccco2)N2CCc3ccccc3C2)c(C)c1 (configuration not stated)	4%
C#CCN1C(=O)S/C(=C\c2cc3c(cc2OC)OCO3)C1=O	8%
CCSc1nc2ccccc2c(=O)n1Cc1ccc(F)cc1	-6%
CCOc1ccc(NC(=O)CN(C)C(=O)c2ccc(C3SCCS3)cc2)cc1OCC	-9%
O=C(CN1CCN(S(=O)(=O)c2ccc(F)cc2)CC1)NC1CCCC1	10%
COC(=O)c1sccc1S(=O)(=O)N(CC(=O)Nc1cccc(C)c1C)c1ccc(C)c(C)c1	2%
COCCCN1CN(S(=O)(=O)c2ccc(C)cc2C)c2nc3ccccc3nc21	0%
COc1cccc(C(=O)Nc2ccc3[nH]ncc3c2)c1	-11%
Cc1cc(N2CCN(C)CC2)ccc1NC(=O)c1ccc(-c2ccc(Cl)cc2)o1	6%
O=C(CN1CCN(S(=O)(=O)N2CCOCC2)CC1)Nc1cc(Cl)ccc1Cl	-10%
O=C(CNC(=O)c1ccc(S(=O)(=O)N2CCCC2)cc1)N/N=C/c1ccc(Cl)cc1Cl	-8%
COCCCNC(=S)NC1CCCCC1	2%
CC(=O)c1cccc(CN2CCN(CCc3ccccc3)C(CCO)C2)c1 (configuration not stated)	6%
O=C1CNC(=O)N1CC(=O)N1CCCc2ccccc21	0%
NCCCNCCCCN(CCCN)/[N+]([O-])=N/O	9%
CN(C)CCSc1nc(-c2ccccc2)nc2c1COC(C)(C)C2	11%
Cc1oc2c(C)c3oc(=O)c(CCC(=O)N4CCCCC4)c(C)c3cc2c1C	7%
COc1ccc(C(C(=O)NCC2CCCO2)N(C(=O)CNC(=O)c2cccs2)c2ccc(C(C)=O)cc2)cc1OC (configuration not stated)	-7%
Cc1ccnc(NS(=O)(=O)c2ccc(NC(=O)C3C4C=CC(C4)C3C(=O)O)cc2)n1 (configuration not stated)	1%
c1ccc(-c2csc3ncnc(NCCCN4CCOCC4)c23)cc1	5%
CCC(C)C1=CC(=Nc2c(C)n(C)n(-c3ccccc3)c2=O)C=C(C(C)CC)C1=O (configuration not stated)	-17%
Cc1cc(C)cc(NC(=O)CN2C(=O)c3ccccc3Sc3ncccc32)c1	14%
Cc1cc(C)nc(SCC(=O)N/N=C\c2sccc2C)n1	13%
Cc1cc(C)cc(Oc2ccc(-c3nnc(-c4ccccc4)o3)cc2[N+](=O)[O-])c1	11%
CCOc1ccc(NC(=O)c2ccc(NC(=O)c3ccccc3Br)cc2)cc1	9%
CC1CCN(c2ncnc3c2c(-c2ccccc2)cn3-c2ccc(Br)cc2)CC1	-3%
CCCCN(C)S(=O)(=O)c1cc(Br)cc2c1N(C(=O)C1CC1)CC2	1%
CC(/C=C/c1ccccc1)=N\NC(=O)c1ccncc1	-17%
Fc1cccc(-n2ncc(-c3nnnn3-c3ccccc3)c2C(F)(F)F)c1	-3%
O=C(CNCCN1CCOCC1)Nc1ccccc1Sc1ccccc1	0%
OC1CCCN(Cc2ccccc2)C1 (configuration not stated)	-6%
CNNC(=S)Nc1ccc(Cl)cc1	7%
COc1ccccc1N1CCN(C(=O)c2cc3cc(Cl)ccc3[nH]2)CC1	-2%
CC1CCCCC1NC(=O)C1CCN(C(=O)NC2CCCCC2)CC1 (configuration not stated)	1%
C=CCSc1nc2sc3c(c2c(=O)[nH]1)CC(C)(C)OC3	8%
Cc1[nH]c(=O)[nH]c(=O)c1CSCC(=O)OCC(=O)c1ccc(Br)cc1	13%
CSc1nc2ccccc2c(=O)n1N	0%
Cc1cc(=O)oc2c(C)c(OCC(=O)NCCN3CCOCC3)ccc12	-5%
